Vif TR-FRET – HIV-1 Vif–A3G interaction blockers – biochemical, TR-FRET, GST-Vif 1-94, biotin-A3G peptide, dose response retest, primary screen (AID 1117319). TR-FRET GST-Vif / biotin-A3G peptide binding; higher % means a stronger effect; test concentration not given here; strong numbers were not always called active. inhibition, %; hits with a dose series show IC50 in µM. actives 0.57% (n = 260,000);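 active means above the screen mean plus three standard deviations and confirmed in dose response; inconclusive means results disagree or hit not tested in dose response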;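 further: Vif residues 1-94 fused to GST binding biotinylated APOBEC3G peptide 110-148; 0% = full assay without inhibitor and 100% = GST in place of GST-Vif; retest series ran down from 100 µM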
RanGTP-Imp inh – disruptors of Ran-importin-beta complex formation – biochemical, FRET, CFP-Ran, YFP-importin-beta, homogeneous, primary screen; actives 1.1% (n = 300,000); cell-free CFP-Ran/YFP-importin-beta FRET ratio; inhibition, % (test concentration not listed);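 active means most replicates above 15%; inconclusive means exactly half above 15%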;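 further: 0% = DMSO wells and 100% = Ran loaded with GDP instead of GTP; wells of about 40 µL received 100 nL stock; the first replicate is given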
AF4-AF9 inh – MLL-AF4/AF9 protein interaction inhibition. AID 651704. inhibition, % at 10 µM. P42568. AlphaScreen, biotin-AF4 peptide binding to FLAG-AF9. actives 0.47% (n = 350,000);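 active means every replicate reaching a set inhibition limit, whatever the replicate mean, cut at about 25% in these data; inconclusive means mean inhibition reaches that limit but some replicates miss it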;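 further: 0% = plate neutral control median and 100% = total signal loss; the record names both 10 and 1 µM as test concentration; the first replicate is given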
HNF4A DNA FP – change in binding of human HNF4 alpha to DNA; P41235; HNF4a-FITC DNA binding, fluorescence polarization, 1 h; activity change, % at 10 µM; actives 0.3% (n = 360,000); in the data active means activity change above about 30%, passing the limit was not always enough;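 further: controls were the assay level and a saturating level of protein; the project sought stronger binding though the title names inhibitors; some compounds called inactive have numbers as strong as hits; positive values seem to mean higher polarization but the record does not say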
Target sequence (P41235 whole entry, looked up): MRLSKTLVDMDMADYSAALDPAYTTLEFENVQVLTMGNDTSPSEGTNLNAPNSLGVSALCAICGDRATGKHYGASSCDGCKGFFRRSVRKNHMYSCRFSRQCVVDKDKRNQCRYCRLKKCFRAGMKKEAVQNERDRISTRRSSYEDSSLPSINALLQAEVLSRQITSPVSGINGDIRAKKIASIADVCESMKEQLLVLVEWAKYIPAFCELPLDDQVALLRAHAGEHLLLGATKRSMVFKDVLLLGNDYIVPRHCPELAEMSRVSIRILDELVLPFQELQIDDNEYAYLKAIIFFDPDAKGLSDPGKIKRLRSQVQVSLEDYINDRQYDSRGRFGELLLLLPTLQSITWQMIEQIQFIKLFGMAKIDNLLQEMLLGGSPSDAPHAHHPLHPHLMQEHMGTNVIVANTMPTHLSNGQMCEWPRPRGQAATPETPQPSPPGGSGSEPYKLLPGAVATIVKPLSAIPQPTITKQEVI
FGF22 binding – shifts melting point of recombinant human FGF22 | Q9HCT0 | recombinant FGF22 thermal shift, SYPRO orange fluorescence; percent of sucrose octasulfate shift, DMSO zero | calls only at 9.99 µM | actives 1.5% (n = 340,000) | AID 651658;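 active means melting point raised past a set limit in the mean and every replicate; inconclusive means no clear call; three in four hits are not shown here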
Target sequence (Q9HCT0 whole entry, looked up): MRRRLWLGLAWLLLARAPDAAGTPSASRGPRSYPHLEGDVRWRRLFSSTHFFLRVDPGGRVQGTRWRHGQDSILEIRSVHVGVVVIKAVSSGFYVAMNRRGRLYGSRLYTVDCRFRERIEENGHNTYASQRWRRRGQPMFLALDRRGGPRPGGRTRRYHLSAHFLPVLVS
UCH37 DUB inh – human UCH37 deubiquitinating enzyme inhibition. purified proteasome/UCH37, Ub-AMC cleavage fluorescence. inhibition, % (test concentration not listed). actives 0.33% (n = 330,000). AID 588478;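 active means mean of two replicates above 20%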;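 further: 0% = compound-free wells with enzyme and 100% = wells lacking proteasome; stock transfer was 100 nL into about 20 µL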
Target sequence (Q9Y5K5 whole entry, looked up): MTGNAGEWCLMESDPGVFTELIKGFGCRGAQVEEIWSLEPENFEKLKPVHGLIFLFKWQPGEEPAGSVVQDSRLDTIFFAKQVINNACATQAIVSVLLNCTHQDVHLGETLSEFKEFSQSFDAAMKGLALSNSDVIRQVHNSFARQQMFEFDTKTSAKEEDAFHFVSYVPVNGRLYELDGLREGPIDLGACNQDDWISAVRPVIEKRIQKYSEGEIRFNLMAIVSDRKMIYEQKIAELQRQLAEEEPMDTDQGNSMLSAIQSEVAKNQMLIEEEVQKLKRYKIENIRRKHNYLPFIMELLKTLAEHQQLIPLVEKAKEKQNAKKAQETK
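Material: human UCH37 enzyme supplied as purified proteasome complex. Measure: % inhibition of Ub-AMC cleavage fluorescence. Medium: pH 7.4 Tris-HCl (50 mM) with ovalbumin, ATP-MgCl2, DTT. Times: 30 min preincubation with enzyme, 25 min cleavage at room temperature. Detection: AMC fluorescence intensity at 355/460 nm.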
E coli growth – inhibitors of Escherichia coli growth | OD600, 23 h; active compounds read low | OD600 absorbance (no concentration beside the values) | actives 0.21% (n = 330,000);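 active means OD600 absorbance below the run mean of sample wells minus 3.6 SD, in any replicate, cut at about 0.56 in these data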;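 further: stock transfer was 300 nL into about 60 µL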
Numbers without * were called inactive; i = inactive; ? = inconclusive; . = no result given; + = active, no number; & = joins results of further samples; ! = not confirmed by another sample.

SMILES	Vif TR-FRET	RanGTP-Imp inh	AF4-AF9 inh	HNF4A DNA FP	FGF22 binding	UCH37 DUB inh	E coli growth
Cc1cc(NC(=O)c2c(-c3c(Cl)cccc3Cl)noc2C)n(C)n1	-14%	0.8	-2.6	0.8	i	0.5	0.67
NNC(=S)NCc1cccnc1	-4%	-1.0	.	-1.0	.	-0.1	0.7
O=C(/C=C/c1ccc(S(=O)(=O)N2CCOCC2)cc1)N1CCCCC1	2%	.	5.7	0.9	i	0.9	0.67
O=C(OCc1ccccn1)c1ccc(COc2ccc3ccccc3c2)o1	15%	2.7	-1.4	0.4	i	3.5	0.67
Cc1ccc(C(=O)CSc2nnc(-c3ccccc3N)n2C)cc1C	0%	2.3	.	-2.5	.	1.2	0.67
O=C1CN(C(=O)CSc2nnc(C3CC3)n2-c2ccccc2)c2ccccc2N1	65%	-2.0	.	-1.9	.	1.1	0.74
CCOc1nc(NC(=O)NS(=O)(=O)Oc2ccccc2Cl)nc(-c2ccccc2)n1	2%	3.8	.	1.7	.	3.6	0.71
COc1ccc(NC(=O)C2(C)Cc3c(-c4ccc5c(c4)OCO5)ccnc3O2)cc1OC (centres undefined)	.	.	4.7	2.9	i	.	.
Cc1cccc(OCC(=O)Nc2ccc(S(=O)(=O)Nc3ccccn3)cc2)c1	.	7.7	-1.2	2.2	i	0.5	0.71
Cc1oc2c(c1C(=O)Nc1cccc3ccccc13)CCCC2	1%	?	.	-0.6	.	2.2	0.8
COCc1cc(CN2CCCC(C(=O)Nc3ccc(-c4ccco4)cc3)C2)ccc1OC (centres undefined)	.	-3.1	12	17	i	6.2	0.65
O=C(CCC(=O)N1CCCCCC1)Nc1ccc([N+](=O)[O-])cc1	.	2.0	-7.3	-1.7	i	3.4	0.72
O=c1[nH]c2c(s1)C(c1cccnc1)C1C3CCC(C3)C1S2 (centres undefined)	17%	?	.	0.7	.	2.9	0.65
CCOc1nc(-c2ccccc2)ccc1-c1noc(-c2ccncc2)n1	2%	1.5	.	2.4	.	-65	0.76
CC(C)Oc1ccc(S(=O)(=O)N2CCOCC2)cc1NC(=O)c1ccc(Cl)c(S(=O)(=O)N2CCOCC2)c1	3%	.	0.4	-3.4	i	.	.
Cn1cnnc1SCC(=O)Nc1nc(-c2ccc(F)cc2)cs1	-3%	1.3	-0.9	1.1	i	3.6	0.71
Cc1ccc2c(=O)cc(C(=O)NCc3ccccc3)oc2c1C	.	-1.0	-1.9	-4.3	i	0.2	0.66
Cc1ccc(C)c(OCC(=O)NNC(=O)CCN2CCN(c3ccccc3)CC2)c1	14%	.	1.3	0.5	i	1.7	0.63
CCOC(=O)c1c(NC(=O)COC(=O)Cn2c(C)nc3ccccc32)sc2c1CCCC2	.	3.2	.	0.5	.	-13	0.71
Cc1ccc(Cc2c(-c3ccccc3)nc3c(C)cc(Br)cn23)cc1	.	.	-3.7	6.2	i	.	.
Cc1ccc(NC(=O)CSc2nnc(-c3n[nH]c4ccccc34)n2-c2ccccc2)c(C)c1	1%	5.6	.	-4.0	.	7.0	0.72
CCCNC(=O)c1oc2ccc3c(c2c1C)C=CC(C)(C)O3	-4%	1.8	8.2	-5.1	i	-3.5	0.62
CCC(Oc1ccccc1OC)C(=O)N1CC(=O)Nc2ccccc21 (centres undefined)	.	6.8	1.6	5.5	i	-0.1	0.69
Cc1ccccc1OCc1nc2ccccc2c(=O)n1/N=C/c1cn[nH]c1-c1ccccc1	3%	0.4	.	-2.2	.	.	.
CC(=O)N1CCN(S(=O)(=O)c2cccc(C(=O)OCC(=O)N(Cc3ccccc3)C(C)(C)C)c2)CC1	.	.	-0.6	-4.4	i	-2.6	0.69
CCCn1c(N)c(CC)c(=O)[nH]c1=O	-12%	.	0.0	-2.3	.	1.1	0.72
Cc1nn(Cc2ccc(Cl)c(Cl)c2)c(C)c1NC(=O)c1cc(C2CC2)on1	2%	-2.4	-1.8	1.4	i	3.8	0.76
Cn1ccnc1Sc1ccc(/C=N/NC(=O)c2ccccc2[N+](=O)[O-])cc1[N+](=O)[O-]	-4%	-0.5	.	-4.7	.	.	.
Cc1cccc(N(C)C(=O)c2cc3c(=O)[nH]c4ccc(C)cc4c3s2)c1	-4%	-4.1	-4.5	-1.7	i	-14	0.67
Cc1ccccc1OCCNC(=O)/C=C/c1ccc([N+](=O)[O-])cc1	.	6.3	.	3.6	.	0.4	0.65
O=C(COC(=O)Cc1ccccc1F)Nc1ccc(SC(F)F)cc1	29%	4.3	-12	0.8	i	4.6	0.67
CCN(CC)CCNC(=O)CNC(=O)c1nn(-c2ccc(OC)cc2)c(=O)c2ccccc12	5%	8.6	0.0	1.9	i	0.3	0.6
COc1ccc(C2=NN(CN3C(=O)C(=O)c4ccccc43)C(c3ccc(Br)cc3)C2)cc1 (centres undefined)	-7%	-4.3	3.6	-1.0	i	4.2	0.65
CCn1cc(C(=O)NCCN(CC(C)C)CC(C)C)c(=O)c2cc(S(=O)(=O)N3CCOCC3)ccc21	.	5.0	-6.2	7.8	i	2.6	0.61
C=CCOc1nc2c(c(=O)n(Cc3ccc(Cl)c(Cl)c3)c(=O)n2C)n1C	-3%	4.3	.	-0.5	.	4.6	0.77
O=c1[nH]ncc(N2CCN(C(c3ccccc3)c3ccccc3)CC2)c1Cl	-1%	-0.4	0.7	3.5	i	1.2	0.67
O=C(O)c1ccc(S(=O)(=O)N2CCC(NC(=O)C3CCCCC3)CC2)cc1	.	-0.1	0.3	1.0	i	2.1	0.7
O=C1CC(NCc2ccncc2)C(=O)N1c1ccccc1 (centres undefined)	2%	3.0	.	1.9	.	2.0	0.69
Cc1nc(N2CCOCC2)nc(Oc2ccccc2F)c1[N+](=O)[O-]	-3%	-9.2	.	-1.0	i	5.7	0.71
Cc1cc(C)c2nc(N3CCC(C(=O)N4CCN(C(=O)c5ccco5)CC4)CC3)sc2c1	-8%	-1.2	.	0.1	.	-1.2	0.74

Given with each value named: two of the compounds above
> Cn1ccnc1Sc1ccc(/C=N/NC(=O)c2ccccc2[N+](=O)[O-])cc1[N+](=O)[O-]
  Vif TR-FRET = -4%	RanGTP-Imp inh = -0.5	AF4-AF9 inh = .	HNF4A DNA FP = -4.7	FGF22 binding = .	UCH37 DUB inh = .	E coli growth = .

> Cc1cccc(N(C)C(=O)c2cc3c(=O)[nH]c4ccc(C)cc4c3s2)c1
  Vif TR-FRET = -4%	RanGTP-Imp inh = -4.1	AF4-AF9 inh = -4.5	HNF4A DNA FP = -1.7	FGF22 binding = i	UCH37 DUB inh = -14	E coli growth = 0.67

Further entries follow:
SMILES	Vif TR-FRET	RanGTP-Imp inh	AF4-AF9 inh	HNF4A DNA FP	FGF22 binding	UCH37 DUB inh	E coli growth
CCOc1ccccc1NC(=O)NC1CCN(CC(=O)Nc2ccc3c(c2)OCCO3)CC1	4%	4.8	.	0.0	.	1.8	0.7
Cc1cccc(N2C(=O)CN=C2Nc2nc(C)cc(C)n2)c1	-2%	3.0	.	-1.3	.	6.8	0.75
CCOCCCNC(=O)C1CCN(S(=O)(=O)N(CC(C)C)CC(C)C)CC1	0%	.	.	-5.3	.	3.2	0.73
COc1ccccc1N1CCN(CC(=O)Nc2ccc(-n3cnnn3)cc2)CC1	6%	-3.4	0.5	1.6	i	16	0.69
O=C(NCCc1ccncc1)Nc1cccc(Cl)c1	6%	1.7	.	-0.6	.	4.1	0.71
CS(=O)(=O)N1CCc2cc(-c3csc(NC(=O)Cc4ccccc4)n3)ccc21	-3%	2.2	.	-3.0	.	2.2	0.68
COc1cccc(CN2CCN(C(=O)[C@H]3O[C@@H](n4cnc5c(N)ncnc54)[C@H](O)[C@@H]3O)CC2=O)c1	.	.	-2.3	1.8	i	.	.
Cc1cc(Cl)c(S(=O)(=O)NCC2CCCO2)cc1OCC(N)=O (centres undefined)	1%	.	.	-1.8	.	3.2	0.68
Cc1nc(CNS(=O)(=O)c2ccc(Br)cc2)cs1	-5%	-2.0	-0.3	0.2	i	0.7	0.69
CSc1ccc(CN(C)C(=O)CCNS(=O)(=O)c2ccc(C)c(C)c2)cc1	0%	7.3	-1.1	0.9	i	-0.7	0.64
C[C@H](CO)N1C[C@H](C)[C@H](CN(C)S(=O)(=O)c2ccc(F)cc2)OCc2cnnn2CCCC1=O	4%	.	-0.9&-15&-1.3	-5.5	+!	.	.
Cc1cc(C)c(-n2c(O)c(C=NCCN3CCOCC3)c(=O)[nH]c2=O)c(C)c1	5%	-2.0	.	0.9	.	-0.9	0.66
O=C(C1CCN(S(=O)(=O)c2cccnc2)CC1)N1CCN(c2ccccc2Cl)CC1	-1%	1.2	.	3.8	.	2.7	0.79
CCn1c(=O)cc(SCC(=O)Nc2cc(OC)c(OC)c(OC)c2)c2ccccc21	-5%	-1.6	.	0.1	.	6.8	0.72
CC(C)NC(=O)Nc1cccc2c1O[C@H](CN(C)C(=O)Nc1ccc(C(F)(F)F)cc1)[C@@H](C)CN([C@H](C)CO)C2=O	-11%	.	-1.5&0.3	3.7	i	11	0.74
CCCCC(CC)CNC(=O)C1CC=CCC1C(=O)O (centres undefined)	2%	3.0	-3.4	3.0	i	4.1	0.68
CN(CC(=O)NCCN1CCN(c2ccccc2)CC1)S(=O)(=O)c1ccc2c(c1)CCC(=O)N2	0%	4.7	-3.2	-1.6	i	4.0	0.74
COc1ccc(Br)cc1CN(C)C(=O)c1ccc2c(c1)NC(=O)C(C)S2 (centres undefined)	-3%	-2.5	-0.8	-2.9	i	3.0	0.7
CNC(=O)C(=O)NCC1OCCCN1S(=O)(=O)c1ccc2c(c1)OCCO2 (centres undefined)	.	?	-2.2	-1.4	i	.	.
Cc1nnc(SCCn2c(N(C)Cc3ccccc3)nc3c2c(=O)[nH]c(=O)n3C)s1	3%	1.0	-13	1.8	i	0.9	0.65
CCOC(=O)N1CCN(S(=O)(=O)c2ccc(OC)cc2)CC1	.	3.6	1.2	2.6	i	1.6	0.67
O=C(Nc1nnc(Cc2ccc(F)cc2)s1)Nc1ccccc1F	.	4.3	-3.5	2.4	i	2.7	0.68
Cc1ccc(/C=N/n2c(C)cc(C)c(C#N)c2=O)o1	-5%	-3.6	-24	6.0	i	.	.
COc1ccccc1[C@@H]1C(c2ccccc2)=NN(c2ccccc2)[C@H]1C(=O)N1CCOC1=O	0%	.	-3.3	5.6	i	-171	0.73
CC(=O)NCCOc1nc(N(C)C)nc(N2CCCCC2)n1	-7%	-3.5	-0.2	-1.8	i	5.6	0.69
O=C(NCCSc1ccccc1)c1ccc(Br)cc1	-4%	8.7	2.5	0.8	i	-0.1	0.67
COc1ccccc1N1C(=O)C(Cl)=C(N2CCCC2)C1=O	.	-4.2	4.3	6.8	i	4.0	0.61
O=C(c1ccc(S(=O)(=O)N2CCOCC2)cc1)N1CCc2ccccc21	.	-3.9	0.9	0.9	i	-0.8	0.66
Cc1cc(C)n2cc(CSc3ccc(Cl)cc3)nc2n1	-11%	6.3	3.1	-2.1	i	-6.6	0.63
Cc1cnc(NC(=O)Nc2ccccc2)c(C)n1	0%	1.2	-12	-0.3	i	-3.5	0.67
COc1ccc(-n2c3c(c(=O)[nH]c2=O)C(C(F)(F)F)(C(F)(F)F)N=C(CC(C)C)N3)cc1	2%	-2.0	.	1.6	.	2.3	0.73
COc1cc(N/C(N)=N/c2nc(C)cc(C)n2)cc(OC)c1	?	2.0	6.0	2.0	i	.	.
O=C(CN1CCC(NC(=O)Nc2ccccc2-c2ccccc2)CC1)NCc1ccco1	2%	-2.7	.	6.1	.	2.4	0.7
Cc1ccc(C)c(-c2ccc(=O)n(Cc3c(F)cccc3Cl)n2)c1	-9%	?	-0.2	0.4	i	-0.1	0.66
O=C(NNC(=O)c1sc2cccc(Cl)c2c1Cl)NC1CCCCC1	-1%	5.0	.	2.6	.	2.4	0.72
Nc1ccn(CCCN2CCN(C(=O)C3CC3)CC2)c(=O)n1	-1%	.	0.1	-0.1	i	.	.

Screening data deposited in PubChem by several laboratories.

The list is partial (hit frequency here may not be typical).
